MLL AF4-AF9 inh = inhibitors of AF4 peptide binding to AF9, primary screen, biochemical, AlphaScreen, biotin-AF4 peptide, FLAG-AF9, single point. Protein AF-9 (Homo sapiens), P42568. inhibition, % at 10 µM. 350,000 compounds, 0.47% hits;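 active = every replicate reaching a set inhibition limit, whatever the replicate mean, cut at about 25% in these data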;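 note: 0% = plate neutral control median and 100% = total signal loss; the record names both 10 and 1 µM as test concentration; the first replicate is given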
Target sequence (P42568 whole entry, looked up): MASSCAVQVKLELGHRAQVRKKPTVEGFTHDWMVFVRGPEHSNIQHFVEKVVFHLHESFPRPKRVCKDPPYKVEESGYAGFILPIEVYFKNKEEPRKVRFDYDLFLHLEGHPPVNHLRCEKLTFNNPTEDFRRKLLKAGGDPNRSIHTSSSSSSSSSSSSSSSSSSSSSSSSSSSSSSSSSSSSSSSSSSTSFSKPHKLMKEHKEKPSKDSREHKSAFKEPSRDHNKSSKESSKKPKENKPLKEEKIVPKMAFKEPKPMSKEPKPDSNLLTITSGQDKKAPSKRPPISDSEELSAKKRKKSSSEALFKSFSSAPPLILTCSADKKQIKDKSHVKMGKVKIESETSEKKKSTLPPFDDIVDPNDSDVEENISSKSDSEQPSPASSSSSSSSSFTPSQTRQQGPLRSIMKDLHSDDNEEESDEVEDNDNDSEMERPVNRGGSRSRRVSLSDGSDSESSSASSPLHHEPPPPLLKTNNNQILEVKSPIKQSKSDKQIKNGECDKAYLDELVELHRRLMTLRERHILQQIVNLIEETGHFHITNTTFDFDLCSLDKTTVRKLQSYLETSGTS
FGF22 binding = binders of human FGF22 protein, primary screen, FGF22 synaptogenesis inhibitor project, biophysical, thermal shift, single point; Fibroblast growth factor 22 (Homo sapiens), Q9HCT0; recombinant FGF22 thermal shift, SYPRO orange fluorescence; percent of sucrose octasulfate shift, DMSO zero; calls only at 9.99 µM; 340,000 compounds, 1.5% hits; AID 651658, 2012;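 active = melting point raised past a set limit in the mean and every replicate; three in four hits are not shown here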
Target sequence (Q9HCT0 whole entry, looked up): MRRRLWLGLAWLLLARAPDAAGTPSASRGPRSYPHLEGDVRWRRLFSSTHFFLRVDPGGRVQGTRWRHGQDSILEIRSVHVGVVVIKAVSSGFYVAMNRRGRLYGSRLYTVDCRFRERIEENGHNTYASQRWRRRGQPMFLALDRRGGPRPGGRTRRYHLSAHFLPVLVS
rRNA inh HTS = reduced GFP signal of wild-type E. coli, primary screen, bacterial rRNA inhibitor project, GFP/RFP fluorescence, OD600, single point; 350,000 compounds, 1.6% hits; AID 720706, 2013; E. coli WT GFP vs humanized-ribosome RFP mutants, 24 h; hits give low values; DMSO median 0, no signal -100; GFP signal change (wild-type ribosome), % (test concentration not listed);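 active = significant combined selectivity score with lowered wild-type GFP, culture density cut under 30%, mutant RFP and density less affected; inactive = any of these conditions unmet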; note: one replicate is shown; some compounds called inactive have numbers as strong as hits
T cruzi inh = inhibitors of intracellular T. cruzi growth, primary screen, luminescence, NIH3T3 host cells. 300,000 compounds, 1.4% hits. AID 1885, 2009. T. cruzi beta-gal in NIH3T3, 90 h. inhibition, % (test concentration not listed);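 active = mean inhibition across valid replicates above about 55%, limit read from the data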;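 note: signal also drops with host cell toxicity which is not excluded here; 0% = plate median of DMSO wells and 100% = zero luminescence signal; higher percent means less beta-gal luminescence so fewer parasites; stock transfer was 50 nL into about 50 µL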
Beta cell apopt = inhibitors of cytokine-induced beta cell apoptosis, primary screen, luminescence; INS-1E cytokine-induced death, ATP luminescence, 48 h; percent of positive-control rescue, neutral wells zero; protection from apoptosis, % (no concentration beside the values); 300,000 compounds, 0.8% hits; AID 435005, 2010;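 active = all replicates at 75% or more, or half of them and the mean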;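 note: 0% = cytokine-treated negative control wells and 100% = positive control rescue; higher means more ATP so stronger rescue from cytokine killing; wells of about 40 µL received 100 nL stock; the first replicate is given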
E coli growth = E. coli growth inhibition, primary screen, OD600. Escherichia coli growth, 23 h; hits give low values. OD600 absorbance (no concentration beside the values). 330,000 compounds, 0.21% hits;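 active = OD600 absorbance below the run mean of sample wells minus 3.6 SD, in any replicate, cut at about 0.56 in these data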;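 note: stock transfer was 300 nL into about 60 µL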
A1 inh = caspase 3/7 activation in MEF A1-2A-BIM cells, primary screen, A1 inhibitor project, cell-based, luminescence, HTS. AID 2462, 2010. Caspase-Glo 3/7 luminescence, 3 h; percent of clofoctol response, vehicle zero. caspase activation, % (concentration not given with the values). 330,000 compounds, 0.066% hits;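 active = over half of replicate activation scores above 10%, or exactly half above 10 with the replicate mean above 10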;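 note: wells of about 30 µL received 50 nL stock; many hits fall short of the cut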
UCH37 inh = inhibitors of human UCH37 deubiquitinase, primary screen, biochemical, Ub-AMC cleavage, fluorescence | purified proteasome/UCH37 | inhibition, % (test concentration not listed) | 330,000 compounds, 0.33% hits;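 active = mean of two replicates above 20%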;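 note: 0% = compound-free wells with enzyme and 100% = wells lacking proteasome; stock transfer was 100 nL into about 20 µL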
Target sequence (Q9Y5K5 whole entry, looked up): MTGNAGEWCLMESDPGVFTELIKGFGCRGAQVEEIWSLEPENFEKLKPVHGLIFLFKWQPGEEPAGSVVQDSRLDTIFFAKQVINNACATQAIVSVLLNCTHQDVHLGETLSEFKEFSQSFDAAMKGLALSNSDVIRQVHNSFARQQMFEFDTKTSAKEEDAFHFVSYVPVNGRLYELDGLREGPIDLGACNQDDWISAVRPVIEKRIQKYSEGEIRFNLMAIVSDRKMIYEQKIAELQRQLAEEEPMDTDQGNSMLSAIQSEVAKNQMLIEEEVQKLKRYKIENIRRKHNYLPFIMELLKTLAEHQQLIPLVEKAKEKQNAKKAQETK
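Material: human UCH37 enzyme supplied as purified proteasome complex. Measure: % inhibition of Ub-AMC cleavage fluorescence. Medium: pH 7.4 Tris-HCl (50 mM) with ovalbumin, ATP-MgCl2, DTT. Times: 30 min preincubation with enzyme, 25 min cleavage at room temperature. Detection: AMC fluorescence intensity at 355/460 nm.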
rRNA inh HTS OD600 = also measured in rRNA inh HTS; calls as there; OD600 change, %; measured here: OD600 growth;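 optical density of the mix in the first replicate; 0 = DMSO median and -100 = no signal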
rRNA inh HTS RFP = second read-out of rRNA inh HTS, no call of its own (marks repeat the call); RFP signal change, %; measured here: RFP humanized mutant strains;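 first replicate; 0 = DMSO median and -100 = no signal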
Active calls of the source: *; i = inactive; · = no result given. Only part of the results is shown (hit frequency here may not be typical).

SMILES	MLL AF4-AF9 inh	FGF22 binding	rRNA inh HTS	rRNA inh HTS OD600	rRNA inh HTS RFP	T cruzi inh	Beta cell apopt	E coli growth	A1 inh	UCH37 inh
COc1ccc(/C=C(\NC(=O)c2ccc(OC)cc2)C(=O)Nc2cccc(C(=O)O)c2)cc1	0.2	i	-2	2	-0.6	0	0	0.64	-1.2	6.6
O=[N+]([O-])c1c(NCc2ccco2)ncnc1NCc1ccco1	8.1	i	-17	-44	-5.9	·	·	0.67	·	9.0
COc1ccc(N2CCN(CCC(N)=O)CC2)cc1	·	·	·	·	·	-32	-4	0.74	0.1	-0.4
COCC(=O)OCC(=O)Nc1cc(C(C)(C)C)nn1-c1ccccc1	·	·	·	·	·	-12	-12	0.68	2.0	2.7
S=c1[nH]nc(CCc2ccccc2)n1-c1ccccc1	·	·	·	·	·	8	-4	0.67	0.4	-1.1
CCC1CSC(Nc2ccc(C(=O)/C=C/c3ccc(OC)c(OC)c3)cc2)=N1 (stereo not given)	·	·	·	·	·	3	19	0.68	-1.7	-3.2
CNC(=O)c1ccc(CNC(=O)OCC(F)(F)F)cc1	·	·	·	·	·	-2	-4	0.68	-0.1	0.4
O=C(Cc1ccccc1)Nc1ccc(N2CCN(Cc3ccccc3F)CC2)cc1	·	·	·	·	·	-22	-4	0.74	0.8	3.5
COc1ccc(N2CCN(C(=O)[C@H](C)NC(=O)c3ccccc3Cl)CC2)cc1	0.4	i	6	10	-0.1	0	2	0.61	-0.1	1.4
Brc1cccc(CSc2nnc(-c3ccncc3)o2)c1	-0.3	i	-12	-8	0.5	·	-7	0.7	0.4	3.8
CCN(CC)CC(=O)Nc1sc(C)cc1C(=O)c1ccc(C)cc1	1.7	i	-13	-8	-0.1	15	6	0.61	1.2	3.8
CC1CCN(C(=O)COC(=O)Cn2cnc3c2c(=O)n(C)c(=O)n3C)CC1	4.3	i	5	4	-1.5	-17	-1	·	-0.1	·
O=C(Cc1ccccc1)NCC(=O)N1CCC2(CC1)NCCc1[nH]cnc12	-1.2	i	14	9	1.0	-5	-1	0.71	1.2	1.2
O=S(=O)(c1ccc(Cl)cc1)N1CCCN(c2nc3ccc(Cl)cc3s2)CC1	3.3	i	13	2	0.7	3	-3	0.68	-0.2	5.1
COc1ccc(N(CC(=O)Nc2ccc(S(=O)(=O)N3CCCCC3)cc2)S(C)(=O)=O)cc1OC	·	·	·	·	·	-13	0	0.66	0.7	0.8
COc1cccc(C(=O)CN2C(=O)C(C)(C)Oc3ccc(C(=O)N4CCOCC4)cc32)c1	-5.1	i	2	2	-0.8	14	·	0.65	0.1	3.2
Cn1nc(CSc2ccccc2)c(C=O)c1Cl	-1.5	i	8	7	-1.4	-5	-1	0.68	-1.5	-0.4
Cc1[nH]c(C(=O)O)c(C)c1C(=O)OC(C)C	·	·	·	·	·	0	-7	0.71	2.5	1.8
COc1ccc(C(=O)n2nnc3ccccc32)cc1Br	·	·	·	·	·	-9	·	0.68	0.2	5.6
CCN(CC)S(=O)(=O)c1ccc(N=Cc2c(C)c(C#N)c(=O)n(C)c2O)cc1	3.1	i	14	18	8.3	8	-12	0.71	-1.6	3.1
CCOc1ccc(N(CC(=O)O)S(=O)(=O)c2ccc(OC)c(OC)c2)cc1	·	·	·	·	·	-9	0	0.69	0.4	1.8
O=C(CCN1C(=O)C2C3C=CC(C3)C2C1=O)NCCc1ccccc1Cl (stereo not given)	·	·	·	·	·	2	1	0.73	0.3	0.1
O=C(CCCN1C(=O)/C(=C\c2cccs2)SC1=S)NNC(=O)c1ccncc1	-1.2	i	12	21	3.7	2	6	0.66	0.2	5.6
Cn1c(=O)c2c(nc(Cl)n2CC(=O)N2CCCCC2)n(C)c1=O	-1.0	i	11	2	-1.4	-9	-5	0.74	0.1	-0.2
CCC(C)N(C(=O)CSc1nnc(-c2ccco2)n1C)C1CCS(=O)(=O)C1 (stereo not given)	0.5	i	5	7	2.4	0	1	0.64	-0.4	1.8
O=C(Cc1cccc(C(F)(F)F)c1)Nc1ccccc1N1CCCC1	3.4	i	-6	-27	-1.3	5	4	0.66	-0.3	1.8
Cc1ccc(S(=O)(=O)Nc2nnc(C(C)(C)C)s2)cc1	-2.5	i	6	7	1.3	-4	-2	0.69	-0.1	4.4
Cc1ccccc1OCCCC(=O)NCc1ccco1	·	·	·	·	·	-5	1	0.73	-1.2	5.4
COc1ccc(C(=O)Nc2ccc(-c3n[nH]c(=S)o3)cc2)cc1	-10	i	-1	7	2.7	-5	-3	0.68	-0.3	0.6
O=S(=O)(c1ccccc1)N1CCC(Oc2ccc(-n3cnnn3)cc2)CC1	-1.3	i	-17	-21	-4.0	4	-3	0.67	0.7	2.2
C=C(C(=O)Nc1ccccc1)c1ccc(C)cc1	-1.7	i	4	5	-4.1	-11	3	0.69	-0.8	3.5
Cc1cc2c(C)nc(N/N=C/c3ccc([N+](=O)[O-])cc3)nc2o1	6.9	i	22	4	1.1	10	-1	·	0.2	·
COc1ccc(C2CC(C(F)(F)F)n3nc(C(=O)Nc4c(C)n(C)n(-c5ccccc5)c4=O)c(Cl)c3N2)cc1 (stereo not given)	·	·	·	·	·	5	1	·	-0.5	4.3
C=CCn1c(Cc2ccc(OC(C)C)c(Cl)c2)nnc1SCC(N)=O	·	·	·	·	·	-8	1	0.73	-0.3	2.5
COCCCNC(=O)c1cc2cc3cc(OC)ccc3nc2o1	-2.7	i	-7	-4	2.3	-9	2	0.66	-0.4	-391
CCCN(CCC)CC(O)CN(c1ccccc1)S(=O)(=O)c1ccc(C)cc1 (stereo not given)	·	·	·	·	·	23	-3	0.64	-0.5	0.7
O=C(CN1CCCCC1)Nc1ccc(N2CCCCCC2)cc1	31*	i	9	3	0.1	-5	1	0.71	-0.5	-1.5
CCCN(CCC)C(=O)Cn1c(=O)n(CCCC(=O)NCc2ccco2)c(=O)c2sccc21	3.1	i	4	10	-3.3	-8	-13	0.71	0.4	-0.6
Cn1cccc1/C=N/NC(=O)CSc1nc2ccccc2n1C	·	i	-4	5	20	5	-1	·	0.3	·
COC(=O)c1ncccc1SC	1.1	·	16	10	-0.3	-6	4	0.7	0.0	-1.1
CCc1cc2c(=O)c(-n3cnc4ccccc43)coc2cc1O	·	·	·	·	·	-14	-1	0.69	0.2	-8.4
COc1cc(C(C)=O)ccc1Oc1ccc(S(=O)(=O)N2CCOCC2)cn1	2.2	i	3	-3	-0.1	·	0	0.69	-0.4	-2.5
CCCCCCN1Cc2ccccc2C1	·	·	·	·	·	-14	-2	0.75	-0.2	2.6
O=C(NCc1n[nH]c(=S)n1-c1ccc(Cl)c(Cl)c1)c1ccc(S(=O)(=O)N2CCCCC2)cc1	-1.4	i	0	-8	5.3	6	·	0.66	0.6	3.4
O=S(=O)(c1ccc(Cl)cc1)N1CCn2c1nc1ccccc12	·	·	·	·	·	-6	0	0.63	-0.1	4.3

Single records (already shown):
Profile of Cn1c(=O)c2c(nc(Cl)n2CC(=O)N2CCCCC2)n(C)c1=O → MLL AF4-AF9 inh: -1.0; FGF22 binding: i; rRNA inh HTS: 11; rRNA inh HTS OD600: 2; rRNA inh HTS RFP: -1.4; T cruzi inh: -9; Beta cell apopt: -5; E coli growth: 0.74; A1 inh: 0.1; UCH37 inh: -0.2
Profile of COc1ccc(C(=O)n2nnc3ccccc32)cc1Br → MLL AF4-AF9 inh: ·; FGF22 binding: ·; rRNA inh HTS: ·; rRNA inh HTS OD600: ·; rRNA inh HTS RFP: ·; T cruzi inh: -9; Beta cell apopt: ·; E coli growth: 0.68; A1 inh: 0.2; UCH37 inh: 5.6

Ten entries out of the list, arranged by count of non-hydrogen atoms, ascending:
SMILES	MLL AF4-AF9 inh	FGF22 binding	rRNA inh HTS	rRNA inh HTS OD600	rRNA inh HTS RFP	T cruzi inh	Beta cell apopt	E coli growth	A1 inh	UCH37 inh
COC(=O)c1ncccc1SC	1.1	·	16	10	-0.3	-6	4	0.7	0.0	-1.1
CCCCCCN1Cc2ccccc2C1	·	·	·	·	·	-14	-2	0.75	-0.2	2.6
C=C(C(=O)Nc1ccccc1)c1ccc(C)cc1	-1.7	i	4	5	-4.1	-11	3	0.69	-0.8	3.5
O=S(=O)(c1ccc(Cl)cc1)N1CCn2c1nc1ccccc12	·	·	·	·	·	-6	0	0.63	-0.1	4.3
Cn1cccc1/C=N/NC(=O)CSc1nc2ccccc2n1C	·	i	-4	5	20	5	-1	·	0.3	·
C=CCn1c(Cc2ccc(OC(C)C)c(Cl)c2)nnc1SCC(N)=O	·	·	·	·	·	-8	1	0.73	-0.3	2.5
COc1cc(C(C)=O)ccc1Oc1ccc(S(=O)(=O)N2CCOCC2)cn1	2.2	i	3	-3	-0.1	·	0	0.69	-0.4	-2.5
CCCN(CCC)CC(O)CN(c1ccccc1)S(=O)(=O)c1ccc(C)cc1 (stereo not given)	·	·	·	·	·	23	-3	0.64	-0.5	0.7
CCCN(CCC)C(=O)Cn1c(=O)n(CCCC(=O)NCc2ccco2)c(=O)c2sccc21	3.1	i	4	10	-3.3	-8	-13	0.71	0.4	-0.6
COc1ccc(C2CC(C(F)(F)F)n3nc(C(=O)Nc4c(C)n(C)n(-c5ccccc5)c4=O)c(Cl)c3N2)cc1 (stereo not given)	·	·	·	·	·	5	1	·	-0.5	4.3

(list continues)
SMILES	MLL AF4-AF9 inh	FGF22 binding	rRNA inh HTS	rRNA inh HTS OD600	rRNA inh HTS RFP	T cruzi inh	Beta cell apopt	E coli growth	A1 inh	UCH37 inh
COC(=O)c1ccccc1S(=O)(=O)N1CCCC(c2nc3c(nnn3Cc3ccc(C)cc3)c(=O)[nH]2)C1 (stereo not given)	-0.9	i	-4	-28	-4.5	6	-5	0.7	-0.1	4.1
COc1cccc(C(=O)N(C)Cc2c(C)nn(C3CCS(=O)(=O)C3)c2C)c1 (stereo not given)	-0.2	i	-12	-8	3.0	·	-4	0.65	1.0	4.4
CCC1Nc2ncnc(N3CCOCC3)c2N(Cc2ccc(Cl)cc2)C1=O (stereo not given)	·	·	·	·	·	·	-2	0.7	-0.3	2.3
CC1CCN(c2c([N+](=O)[O-])nn(-c3ccc4c(c3)OCCO4)[n+]2[O-])CC1	·	·	·	·	·	62*	·	0.67	-0.1	3.2
CCN(C(=O)COC(=O)c1ccc(=O)n(Cc2ccccc2)n1)C1CCCCC1	-2.0	i	6	5	-2.8	·	-3	0.66	0.5	2.2
Cc1c(N=C2N=C(NC(=O)c3ccc(F)cc3)c3ccccc32)c(=O)n(-c2ccccc2)n1C	1.2	i	-14	-10	-1.7	4	-1	0.72	0.0	3.9
Cc1[nH]c2ccccc2c1CN1CCN(c2ccccn2)CC1	7.6	i	-14	-11	-1.1	78*	92*	0.67	0.3	6.2
Cc1ccc(CNC(=O)c2coc(=O)c3ccccc23)o1	·	·	·	·	·	4	-12	0.72	-0.4	4.2
O=C(c1ccc(F)cc1)N1CCCC(N2CCN(Cc3ccc4c(c3)OCO4)CC2)C1 (stereo not given)	-0.7	i	3	4	0.3	44	1	0.69	0.0	-0.2
